Assay outcomes: PubChem BioAssay, Fisher Drug Discovery Resource Center
NPYLR7 agonist = activates Aedes aegypti NPYLR7 receptor. HEK293T NPYLR7/Galpha15, GCaMP6s calcium fluorescence. activation, % at 10 µM. 270,000 compounds, 0.15% hits. AID 1259423; in the data active means activation above about 40%;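 further: 0% = vehicle and 100% = reference agonist at the receptor; some compounds past the cut are filed as inactive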
NPYLR7 agonist max-min = recorded beside NPYLR7 agonist, whose call it bears; activation, %; measured here: Max-Min RFU normalised activation; some inactives read as strong as hits;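 span of the calcium signal over five minutes; 0% = vehicle and 100% = native peptide agonist; compound fluorescence can raise it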
The depositor's hits bear a star; & = joins results of further samples.

no.	SMILES	NPYLR7 agonist	NPYLR7 agonist max-min
1	COCCCNC(=O)C(NC(=O)c1ccccc1C)C1CCN(S(=O)(=O)c2ccc(OC)cc2)CC1 (stereo not given)	22	28
2	Cc1ccc(CS(=O)(=O)NCc2cnn3ccccc23)cc1	2	2
3	CCS(=O)(=O)c1ccc2oc(=S)n(CN3CCCC(O)C3)c2c1 (stereo not given)	2&1	1&0
4	Cn1c(=O)c2c(S(C)=O)snc2n(C)c1=O (stereo not given)	-1	-2
5	CCOc1ccc(-n2nnnc2CN2CCN(C(=O)CC3CCCCC3)CC2)cc1	-2	-3
6	O=C(CCn1ccnc1)N1CCCC(CCc2ccccc2C(F)(F)F)C1 (stereo not given)	0	-1
7	CC(C)CN1CC(C(=O)N2CCCN(S(C)(=O)=O)CC2)CC1=O (stereo not given)	-2	6
8	CN(C)CCN(Cc1ccccc1)C(=O)c1cc(-c2ccccc2)nc2cc(C(C)(C)C)nn12	6	9
9	Cc1onc(-c2ccccc2Cl)c1C(=O)Nc1sc2c(c1C(N)=O)CCCC2	-2	-6
10	Cc1ccc(-c2nc(CN3CCN(c4ccc(Cl)cn4)CC3)c(C)o2)o1	-2&9	-3&-1
11	CCc1ccc(S(=O)(=O)Nc2ccc(O)c(C(C(=O)OC(C)C)C(=O)C(F)(F)F)c2)cc1 (stereo not given)	2	1
12	c1ccc(COCCN2CCC3(CCOCC3)CC2)cc1	-1	-2
13	CCN1CCN(C(=O)c2ccc(CSc3nnc(-c4ccccc4[N+](=O)[O-])n3-c3ccc(OC)cc3)cc2)CC1	4	6
14	COc1ccc(Oc2cnn(-c3ccc(Cl)cc3)c(=O)c2Nc2ccc(C(=O)NCc3cccnc3)cc2)cc1	-3	-1
15	COc1cc(C)c(S(=O)(=O)N2CCCC2c2ccncc2)c(C)c1 (stereo not given)	8	6
16	Cc1ccc(C=C(C#N)C(N)=S)s1	0	-5
17	CC(C)CCCCCCNC(=O)C1CC2COCC(C1)C2=O (stereo not given)	4	1
18	CCN(C(=S)NCc1cccs1)C1CCS(=O)(=O)C1 (stereo not given)	16	10
19	NC(=O)c1cccc(CC2CCN(C(=O)C3CCC(O)CC3)C2)c1 (stereo not given)	1	-4
20	O=C1CSC(=S)N1N=Cc1ccc2c(c1)OCO2	5	4
21	O=S(=O)(NCc1ccc(CN2CCOCC2)cc1)c1cc(Cl)cc(Cl)c1	3	-1
22	Nc1nc(SCc2nnc(-c3cc4c(s3)CCCC4)o2)n[nH]1	2	0
23	CN(Cc1nc2ccc(Cl)cc2[nH]1)C(=O)CCC(=O)NC1CCCC1	1	-3
24	N#Cc1cccc(C(=O)Nc2cccc(-c3cccc(-c4ccc5c(c4)OCCO5)n3)c2)c1	-7	-12
25	CCC(CO)N1CC(=O)C(c2nc(-c3ccc(C)cc3)cs2)C1=N (stereo not given)	-1	-1
26	CCCCCCCC(=O)NC(Cc1ccccc1)c1nnc(SCc2ccccc2)n1-c1ccc([N+](=O)[O-])cc1 (stereo not given)	-1	8
27	O=S(=O)(/C=C/c1ccccc1)NCC1COc2ccccc2O1 (stereo not given)	0	0
28	COc1cccc2sc(N3CCN(C(=O)C4CCCN4S(=O)(=O)c4cccs4)CC3)nc12 (stereo not given)	-3	-2
29	c1cn(CCCNc2ccc3cc[nH]c3n2)cn1	4	-2
30	CCOC(=O)C1=C(O)/C(=C\c2ccc([N+](=O)[O-])c(O)c2)SC1=Nc1ccc(C)cc1	24	22
31	CC(Oc1ccccc1)C(=O)NCc1cc(-c2cc3ccccc3o2)on1 (stereo not given)	1	1
32	CCCCNC1=NCCS1	9	8
33	O=C(CC1(O)C(=O)Nc2ccccc21)c1ccc(Br)s1 (stereo not given)	2	-2
34	Cc1noc(C)c1CSc1nc2sc(C)c(C)c2c(=O)n1C	2	2
35	C=CCn1c(SC(C)C(=O)NC(N)=O)nnc1C1CCS(=O)(=O)C1 (stereo not given)	6	7
36	O=C(C1CCCN1CC(O)c1cccc(Cl)c1)N1CCOCC1 (stereo not given)	2	1
37	CCN(CC)C(=O)c1cc2c(=O)n3cccc(C)c3nc2n1C	14&3	19&2
38	Cc1nnsc1C(=O)NC1CC(=O)N(CCc2ccccc2)C1 (stereo not given)	13	8
39	CCS(=O)(=O)N1CCC2(CC1)[C@H](C(=O)NC)[C@@H](OC(=O)Nc1ccccc1)C(=O)N2C	24	28
40	O=C(N=Nc1c(O)n(CO)c2ccccc12)c1ccncc1	1	0
41	O=C(C=Cc1ccsc1)N1CCN(S(=O)(=O)c2ccc(F)cc2F)CC1	13	17
42	Cc1nn(C(=O)COc2ccc(C(C)(C)C)cc2)c(C)c1S(=O)(=O)N1CCc2ccccc2C1	-6	0
43	Cc1cc(=O)n2[nH]c(-c3ccco3)nc2n1	-2	1
44	COc1ccc(C2SCCN2C(=O)c2cc(C(F)(F)F)cc(C(F)(F)F)c2)cc1OCc1ccccc1 (stereo not given)	7	18
45	CCCCCC(C)n1[nH]c(=O)c2c(C)cc(=O)[nH]c21 (stereo not given)	0	-2

The closing 2 entries of the part above come first, to join the parts:
no.	SMILES	NPYLR7 agonist	NPYLR7 agonist max-min
44	COc1ccc(C2SCCN2C(=O)c2cc(C(F)(F)F)cc(C(F)(F)F)c2)cc1OCc1ccccc1 (stereo not given)	7	18
45	CCCCCC(C)n1[nH]c(=O)c2c(C)cc(=O)[nH]c21 (stereo not given)	0	-2
46	Cc1ccc(OCc2cn(-c3ccc(Cl)cc3)nn2)cn1	10	6
47	Cc1cccc(NC(=O)CCN2C(=O)c3ccccc3C2=O)c1	-3	-7
48	O=C1CCC(C(=O)N2CCCCCCC2)CN1CCCN1CCOCC1 (stereo not given)	0	-6
49	O=C(COC(=O)c1ccc2ccccc2c1)NCc1ccco1	9	6
50	O=C(O)CCCc1c[nH]c2ccccc12	-3	-8
51	O=C(NCCc1cccnc1)C1CC=CCC1C(=O)N1CCc2c([nH]c3ccccc23)C1 (stereo not given)	2	-7
52	Cc1cc(-c2nnc(SCC(=O)O)n2C(C)c2ccccc2)on1 (stereo not given)	9	7
53	CN1CCC(C)(CN(C)C(=O)CCn2cncn2)C1 (stereo not given)	-1	-1
54	CC(C)(C)C(=O)N1CCOC(C(=O)O)C1 (stereo not given)	-7	-7
55	CCc1nccn1CCC(=O)N1CCC2(CC1)C(=O)NCCN2C	-1	-1
56	CCN(CC)C(=O)C12CC3CC(CC(C3)C1)C2	6	8
57	COC(=O)[C@H]1[C@H]2C[C@H]3c4[nH]c5ccccc5c4CCN3C[C@H]2CC[C@@H]1O	-4&5&-3	-8&-11&-11
58	O=C1CNC(=O)N1Cc1nc(CCc2ccccc2)nn1-c1ccccn1	-4	-6
59	Nc1n[nH]c2ccc(-c3ccnc4[nH]ccc34)cc12	-2	-4
60	c1ccc(-c2nc3c(c(N4CCN(Cc5ccoc5)CC4)n2)CCC3)cc1	-5	-7
61	COc1ccc(CN2CCN(Cc3ccc(C)s3)CC2CCO)c(F)c1 (stereo not given)	4	1
62	Cc1ccc(C2=NC(=Cc3cnn(C)c3)C(=O)O2)cc1	3	-2
63	CCOc1ccccc1C1NC(=S)NC(C)=C1C(=O)OC (stereo not given)	1	-4
64	Cc1ccc(CN2CCC(CN(C)Cc3cc(CC(C)C)n[nH]3)CC2)o1	6	6
65	CCN(CC)C(=O)CSc1nnc2[nH]c(=O)cc(-c3ccccc3)n12	-11	-7
66	CC(=O)c1cc(C(=O)N(CCN(C)C)Cc2ccc(C)s2)c(=O)[nH]c1C	4	-5
67	CCCOC1CCCN(S(=O)(=O)NCc2ccccc2)C1 (stereo not given)	-2	-5
68	CCOC(=O)c1nn(-c2ccccc2)c(=O)cc1N1CCN(Cc2ccccc2)CC1	-1	-3
69	CC(C)CCN(Cc1ccc(F)cc1F)CC(O)COCc1ccco1 (stereo not given)	-3	2
70	Cn1c(CN2C(=O)c3ccccc3S2(=O)=O)nc2cc(Cl)ccc21	1	1
71	Cc1cccc(Cn2c(NCCCO)nc3c2c(=O)[nH]c(=O)n3C)c1	-3	-4
72	Cc1nc(-c2cc(Br)cs2)sc1C(=O)O	-2	-4
73	Cc1nc(-c2ccc(NS(=O)(=O)c3ccc(F)cc3)cc2)cs1	4	12
74	CC(C)Oc1ncccc1CNC(=O)C1Oc2ccccc2OC1C (stereo not given)	0	-2
75	COc1ccc(CC(=O)Nc2ccc(SCC(=O)N3CCCC3)nn2)cc1	-4	-3

Entries listed so far that have bromine:
no.	SMILES	NPYLR7 agonist	NPYLR7 agonist max-min
33	O=C(CC1(O)C(=O)Nc2ccccc21)c1ccc(Br)s1 (stereo not given)	2	-2
72	Cc1nc(-c2cc(Br)cs2)sc1C(=O)O	-2	-4

Next compounds follow.
no.	SMILES	NPYLR7 agonist	NPYLR7 agonist max-min
76	Cc1sc(NC(=O)C2C3CCC(O3)C2C(=O)O)c(C(=O)OC(C)C)c1-c1ccc(Cl)cc1 (stereo not given)	-1	0
77	Cn1cnnc1SCc1ccc(Cl)c(Cl)c1	0	5
78	CC1CC(Sc2nnc(N3CCOCC3)n2Cc2ccccc2)C(=O)O1 (stereo not given)	5	3
79	COc1ccc(C)cc1-n1c(SCC(=O)NCC2CCCO2)nc2c([nH]c3ccccc32)c1=O (stereo not given)	-9	-4
80	Cc1nc2sccn2c1C(=O)NCC1(c2ccc(F)cc2)CCOC1 (stereo not given)	-5	-10
81	Nc1cc(C(F)(F)F)cc2c1OCC(=O)N2	4	3
82	CCOC(=O)C1(CCCc2ccccc2)CCN(C(=O)c2n[nH]c(CC)c2C)CC1	-6&-3	-10&-6
83	Cc1nc2n(n1)CCN(S(=O)(=O)c1ccc(OC(F)(F)F)cc1)C2	1	1
84	c1ccc(-c2noc(CN3CCN(C4CCc5ccccc5C4)CC3)n2)nc1 (stereo not given)	3	1
85	COC(=O)c1c(NC(=O)c2cnn3c(C(F)(F)F)cc(-c4ccccc4)nc23)sc2c1CCC(C(C)(C)C)C2 (stereo not given)	-3	4
86	O=C1c2ccc(Br)cc2C(=O)N1CN(C(=O)C(F)(F)F)c1ccccc1	-3	-5
87	CC(C)c1cc(C(=O)N2CCC(n3nccc3NC(=O)C(C)(C)C)CC2)on1	7	4
88	O=C(CSc1nc2ccccc2n1Cc1ccccc1)N/N=C\c1ccccn1	-8	-11
89	Cc1cccc(C(=O)N(CC2CCCO2)c2nc3ccccc3s2)c1C (stereo not given)	-12	-12
90	C=CCN(Cc1ccccc1OC)C(=O)c1csc(C)n1	13	12

Some of the entries so far, field by field:
#87 CC(C)c1cc(C(=O)N2CCC(n3nccc3NC(=O)C(C)(C)C)CC2)on1
  NPYLR7 agonist: 7	NPYLR7 agonist max-min: 4

#88 O=C(CSc1nc2ccccc2n1Cc1ccccc1)N/N=C\c1ccccn1
  NPYLR7 agonist: -8	NPYLR7 agonist max-min: -11

#89 Cc1cccc(C(=O)N(CC2CCCO2)c2nc3ccccc3s2)c1C (stereo not given)
  NPYLR7 agonist: -12	NPYLR7 agonist max-min: -12

#90 C=CCN(Cc1ccccc1OC)C(=O)c1csc(C)n1
  NPYLR7 agonist: 13	NPYLR7 agonist max-min: 12

(listing goes on)
no.	SMILES	NPYLR7 agonist	NPYLR7 agonist max-min
91	CCOc1ccc(CCNC(=O)Cn2ccn3nc(-c4ccccc4)cc3c2=O)cc1OCC	2	-1
92	CSc1ccc(/C=C2\N=C(c3cccc(C)c3)OC2=O)cc1	2	-1
93	CC1CC(C)CN(c2ncnc3c2nc2n3CCCC2)C1 (stereo not given)	9	8
94	Cn1cncc1-c1ccccc1-c1ccccc1	-4	-4
95	C=CCNc1ccccc1C(=O)NCCN1CCNC1=O	-3	-4
96	CCS(=O)(=O)N1CCN(c2cc(Oc3ccc(F)c(Cl)c3)ncn2)CC1	4	8
97	Cn1[nH]c(=O)nc1SCc1cccc(C(F)(F)F)c1	6	1
98	CC(=O)N1C(=O)/C(=C2\SC(=S)N(CCCCCC(=O)O)C2=O)c2ccccc21	-6	-10
99	O=C1CN(c2ccc(NC(=O)C3CC(c4ccc(Cl)s4)=NO3)cc2Cl)CCN1 (stereo not given)	-3	-3
100	COC(CNC(=O)NCc1cccc(CO)c1)c1ccc(Cl)cc1 (stereo not given)	-1	35
101	Cc1ccc(Cn2c(SCCN3CCOCC3)nc3ccccc3c2=O)cc1	-2	-3
102	C=CCN(CC(=O)N1CCc2sccc2C1COc1ccc(C)cc1C)C(=O)NC(C)(C)C (stereo not given)	-3	4
103	N#CCCn1cnc2sc3c(c2c1=O)CCCC3	5	3
104	CCOc1ccc(C2NC(=O)N(C)C3=C2C(=O)N(Cc2cccnc2)C3)cc1 (stereo not given)	11	21
105	Cc1cccc(-c2cc(N)n(-c3ccc(C(=O)NC(c4ccccc4)c4ccccn4)cc3)n2)c1 (stereo not given)	1	-5
106	CCOc1ccc(Cl)cc1CN(C)C(=O)CC(=O)Nc1ccccc1C	-4	-9
107	O=C(NCCc1c[nH]c2ccccc12)C1CCC(=O)N(CCc2cccc(F)c2)C1 (stereo not given)	4	0
108	Cc1ccc(Oc2cnn(C)c(=O)c2Nc2cccc(C(=O)NCc3ccco3)c2)c(C)c1	-1	11
109	CCc1nc2c(OCC3CCCCC3)cccn2c1N(C)C(=O)c1ccco1	7	-10

Some of the compounds tested (hit frequency here may not be typical).
